Screening data (PubChem BioAssay)
Rango release inh = inhibition of RanGTP-driven Rango-importin beta dissociation. Biochemical FRET Rango-importin beta, RanGTP-induced dissociation. AID 540253. O95149+P62826. Potency, µM (top dose mostly 46.1 µM), without a hit: at the highest dose activity change, negative = inhibition. actives 0.071% (n = 340,000); active means falling FRET ratio curve, often poorly fitted, with flat reads before Ran was added; inconclusive means other falling curves, or compound fluorescence or quenching; inactive means flat or rising ratio curve;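 also: potency is read from the fitted curve at half-maximal effect; % of control where 0% means no effect; nearly all actives have a fitted effect of over 45% in size; -100% = wells without RanGTP and RCC1; the record marks most hits as doubtful in a second field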
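Quantitative HTS using a FRET biosensor: 0.1 uM Rango, 0.25 uM importin beta, 0.6 uM Ran, 2 mM GTP, 0.2 uM RCC1 final, PBS with DTT, Tween-20 and BSA. Post-read taken 45 min after Ran addition.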
miR-21 reporter = raises the signal of a miR-21 reporter; HeLa miR-21 FLuc reporter, luciferase, 48 h; Potency, µM (doses to about 38.3 µM), for the others: top-dose reporter change, positive = more light; 340,000 tested, under 10 active; AID 2288; active = well fitted rising curve with a large enough effect; inconclusive = small, poorly fitted or top-dose-only effect; inactive = no such curve, though single readings can be large or run the other way;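 also: % of control where 0% means no effect; miR-21 action dims this reporter so a rising signal means less miR-21 action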
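HeLa cells endogenously expressing miR-21, stably carrying CMV-driven firefly luciferase with a downstream miR-21 binding site, 2000 cells/well. Titrations up to approximately 40 uM, 48 hours; luciferase luminescence read.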
GLA inh pH 4.5 = blocks human alpha-galactosidase A at pH 4.5. 230,000 tested, under 10 active. P06280. purified enzyme, 4-MU-alpha-Gal fluorescence, pH 4.5. AID 1467. activity change, negative = inhibition, % at 105 µM; inconclusive = small, poorly fitted or top-dose-only inhibition, or a rising curve; inactive = flat fitted curve, though single readings scatter; no compound was filed as active;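 also: 0% = full activity with enzyme and -100% = basal without enzyme; dose as in the result columns while the protocol names 77 µM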
Rango-impB inh = Rango-importin beta binding inhibition | Q14974 | Rango CFP/YFP FRET sensor + importin beta, 45 min | Potency, µM (titrated, usually from 92.2 µM), for the others: at the highest dose inhibition of complex formation | actives 0.031% (n = 340,000) | AID 540263; active = rising FRET ratio curve, often small or poorly fitted; inconclusive = mostly compound fluorescence or quenching in the first reads; inactive = flat curves in all reads;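 also: potency is read from the fitted curve at half-maximal effect; 0% = DMSO wells and 100% = buffer wells lacking importin beta; nearly all actives have a fitted effect of over 15% in size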
Target sequence (Q14974 whole entry, looked up): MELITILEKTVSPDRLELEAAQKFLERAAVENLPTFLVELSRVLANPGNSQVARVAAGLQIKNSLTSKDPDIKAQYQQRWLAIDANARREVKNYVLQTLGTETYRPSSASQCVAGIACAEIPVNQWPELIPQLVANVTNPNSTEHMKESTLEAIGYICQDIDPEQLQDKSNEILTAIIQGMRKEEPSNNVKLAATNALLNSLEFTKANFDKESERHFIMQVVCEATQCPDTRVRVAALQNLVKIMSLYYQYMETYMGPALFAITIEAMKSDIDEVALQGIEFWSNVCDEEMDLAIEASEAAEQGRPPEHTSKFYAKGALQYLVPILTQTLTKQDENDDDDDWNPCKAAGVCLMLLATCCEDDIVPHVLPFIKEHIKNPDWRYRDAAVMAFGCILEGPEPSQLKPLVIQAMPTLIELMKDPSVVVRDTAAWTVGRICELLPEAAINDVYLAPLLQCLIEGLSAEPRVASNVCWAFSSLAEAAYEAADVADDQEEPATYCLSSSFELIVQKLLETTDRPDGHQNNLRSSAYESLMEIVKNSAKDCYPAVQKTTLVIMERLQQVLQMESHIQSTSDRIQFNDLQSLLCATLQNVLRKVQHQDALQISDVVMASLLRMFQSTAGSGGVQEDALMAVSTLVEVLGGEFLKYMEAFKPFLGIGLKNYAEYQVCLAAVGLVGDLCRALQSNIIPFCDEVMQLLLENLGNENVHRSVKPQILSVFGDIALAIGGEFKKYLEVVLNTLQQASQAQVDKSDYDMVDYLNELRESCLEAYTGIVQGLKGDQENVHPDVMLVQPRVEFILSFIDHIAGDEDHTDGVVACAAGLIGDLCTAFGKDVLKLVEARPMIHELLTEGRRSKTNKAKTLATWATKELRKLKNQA
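FRET biosensor (snurportin 1 IBB flanked by EYFP and cerulean), 50 nM, with compound 5 min, then 0.125 microM importin beta in PBS, 1 mM DTT, 0.02% Tween-20, 0.1% BSA. CFP/YFP ratio read after 45 min at room temperature; pre-read flags interference.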
An asterisk follows results filed as active; ? = inconclusive; / = not tested or not shown; & = joins results of further samples.

Rango release inh,miR-21 reporter,GLA inh pH 4.5,Rango-impB inh,Compound
-8%,/,/,?,CCCCn1c(N)c(N(CCC(C)C)C(=O)c2oc3ccc(OCC)cc3c2C)c(=O)[nH]c1=O
-10%,1%,-3,-1.2%,Cc1ccc(S(=O)(=O)NC(C(=O)O)c2ccccc2)cc1 (configuration not stated)
-4%,-12%,6,-3.7%,CCC(C)N=Cc1c(NCc2ccco2)nc2c(C)cccn2c1=O (configuration not stated)
2%,-1%,1,1.1%,CC(=O)Nc1ccc(S(=O)(=O)NCC(=O)OCC(=O)NC(=O)C2CCCCC2)cc1
-12%,14%,4,1.7%,CC(C)N(Cc1nccn1C)C(=O)c1cc(COc2ccc3ncccc3c2)on1
-21%,-16%,/,-1.9%,CCOC(=O)CN(C(=O)c1snc(C(N)=O)c1N)C(C(=O)NC1CCCCC1)c1ccc(F)cc1 (configuration not stated)
27%,-10%,-3,0.1%,O=C(NCC1(c2ccccc2)CCOCC1)c1ccc(Br)o1
1%,-3%,/,-0.1%,CCOC(=O)c1ccccc1NS(=O)(=O)c1c(C)nc2sccn2c1=O

Continued; the last 5 above are carried over.
Rango release inh,miR-21 reporter,GLA inh pH 4.5,Rango-impB inh,Compound
2%,-1%,1,1.1%,CC(=O)Nc1ccc(S(=O)(=O)NCC(=O)OCC(=O)NC(=O)C2CCCCC2)cc1
-12%,14%,4,1.7%,CC(C)N(Cc1nccn1C)C(=O)c1cc(COc2ccc3ncccc3c2)on1
-21%,-16%,/,-1.9%,CCOC(=O)CN(C(=O)c1snc(C(N)=O)c1N)C(C(=O)NC1CCCCC1)c1ccc(F)cc1 (configuration not stated)
27%,-10%,-3,0.1%,O=C(NCC1(c2ccccc2)CCOCC1)c1ccc(Br)o1
1%,-3%,/,-0.1%,CCOC(=O)c1ccccc1NS(=O)(=O)c1c(C)nc2sccn2c1=O
-2%,3%,-15,-0.1%,CCC1CSC(Nc2ccc(C(=O)/C=C/c3cccc(C)c3)cc2)=N1 (configuration not stated)
-8%,-47%,/,0.6%,O=C(Nc1ccc(NC(=O)c2ccco2)nc1)c1cccc(F)c1
-4%,0%,7,2.9%,Cn1ncc(Cl)c1C(=O)N/N=C/c1cc2c(cc1[N+](=O)[O-])OCO2
-17%,22%,0,0.2%,O=C1CCCN1c1ccc(S(=O)(=O)Nc2ccc3c(c2)OCCO3)cc1
3%,-63%,/,1.0%,O=C(NCCc1ccccc1)c1ccc(Cl)cc1[N+](=O)[O-]
-5%,8%,-13,-1.1%,CCn1c(SCC(=O)Nc2ccc(OC)cc2)nc2nc3c(cc2c1=O)CCCC3
-1%,-12%,9,1.1%,Cc1nn(C)c(=O)c(N)c1-c1cc(-c2ccc(Cl)c(Cl)c2)n[nH]1
14%,/,/,6.5%,C[C@@]12C(=O)Nc3cc(Cl)ccc3C(=O)N1[C@H]1c3cc(Cl)ccc3OC[C@@H]1[C@@H]2c1ccccc1
0%,-43%,-2,-1.8%,COc1cccc(-c2cc(C(=O)NCCCn3ccnc3)no2)c1
/,2%,-10,/,CCOC(=O)c1[nH]c(C)c(/C(O)=C2\C(=O)C(=O)N(CCCN(C)C)C2c2ccncc2)c1C (configuration not stated)
-11%,0%,2,-0.9%,Cc1ccc(S(=O)(=O)c2cc(O)ccc2O)cc1C
-9%,-4%,/,-2.6%,CCOC(=O)C1=C(c2ccccc2)NC(=O)NC1c1ccc(OC)cc1OC (configuration not stated)
-3%,-1%,-1,-0.6%,CSCCNC(=O)Nc1c(-c2c(Cl)cccc2Cl)noc1C
-5%,-1%,/,-1.1%,Cc1ccc(C(=O)COC(=O)CCN2C(=O)C3C4CCC(C4)C3C2=O)cc1C (configuration not stated)
1%,-1%,4,4.1%,CCOC(=O)c1cnn(-c2cc(C(C)(C)C)nc3c(-c4ccccc4)c(C)nn23)c1N
4%,5%,8,0.3%,CC(C)(C)OC(=O)N1CCC(C(=O)N[C@@H](Cc2ccccc2)C(=O)O)CC1
5%,-1%,-21,-1.4%,COc1ccc(F)cc1S(=O)(=O)NC1CC(C)(C)NC(C)(C)C1
-6%,0%,-13,-1.4%,CCCc1c(C(=O)Nc2ccc(F)cc2)cnn1-c1ccccc1
16%,-1%,2,0.2%,Cc1cc(NC(=O)C2CCN(S(=O)(=O)c3cccs3)CC2)no1
-7%,-15%,6,0.3%,CCC1Oc2ccccc2N(CC(=O)Nc2ccccc2OC)C1=O (configuration not stated)
-4%,5%,-7,0.4%,Cc1cc(C(=O)NCCc2ccc(S(N)(=O)=O)cc2)no1
30%,-65%,/,-1.6%,Cn1ccsc1=NC(=O)c1cccc(OC(F)F)c1
8%,0%,/,-2.4%,CCCC(=O)Nc1c2c(nn1-c1cccc(Cl)c1)CS(=O)(=O)C2
0%,/,/,-0.8%,CN(c1ccccc1)S(=O)(=O)c1cccc(C(=O)N2CCCCCC2)c1
?,-2%,-2,0.6%,COc1ccc(/C=N/NC(=O)c2c(C)n(C)c3ccc(OC)cc23)c(OC)c1
1%,/,/,2.2%,CCCn1nc(C(=O)N2CCc3ccccc32)c2ccccc2c1=O
-18%,-23%,5,-2.1%,COC(=O)CNc1c(-c2ccccn2)nc2ccc(Br)cn12
/,-3%,-3,/,COc1ccccc1NS(=O)(=O)c1cc(NC(=O)C2CC2)ccc1N1CCOCC1
4%,-2%,1,-0.8%,COc1ccc(OC)c(C2CC(=O)Nc3cc(OC)c(OC)c(OC)c32)c1 (configuration not stated)
2%,-2%,-14,-4.4%,CN(c1ccccc1)S(=O)(=O)c1cccc(NC(=O)CCN2C(=O)C3CCCCC3C2=O)c1 (configuration not stated)
1%,-1%,/,-1.7%,Cc1ccccc1N(C(=O)c1csnn1)C(C(=O)NC1CCCC1)c1ccncc1 (configuration not stated)
21%,-13%,/,-4.4%,COc1ccccc1N1CCN(/N=C/c2ccc([N+](=O)[O-])cc2)CC1
2%,0%,-4,0.5%,O=C(O)CC(c1cccc(C(F)(F)F)c1)N1CCS(=O)(=O)CC1 (configuration not stated)
2%,-6%,2,6.1%,CC(C)=CCN1CCN(CC#Cc2ccccc2)CC1CCO (configuration not stated)
59%,-3%,/,-1.3%,Cc1ccccc1C(=O)Nc1ccc(N2CCN(C(=O)c3ccco3)CC2)cc1
0%,-11%,4,0.3%,CC(Sc1nnc(COc2ccc3ccccc3c2)n1C)C(=O)O (configuration not stated)
-17%,-13%,1,0.1%,Cc1cc(C(=O)CN2C(=O)C3CC=CCC3C2=O)c(C)n1-c1ccccc1 (configuration not stated)
-16%,/,/,0.0%,CS(=O)(=O)c1ccccc1-c1nnc(NC(=O)CCS(=O)(=O)c2ccc(Cl)cc2)o1
1%,12%,-14,2.0%,CC1=C(C(=O)c2ccccc2)C(c2ccc(OC(F)F)cc2)NC(=S)N1 (configuration not stated)
16%,/,/,-3.7%,C/C=C1\COC(C(=O)NCCN2CCCC2)(C(F)(F)F)C=C1C=C1CCCCC1 (configuration not stated)

3 of the entries above in order of the miR-21 reporter value, falling:
| canonical_smiles | miR-21 reporter |
| --- | --- |
| O=C(O)CC(c1cccc(C(F)(F)F)c1)N1CCS(=O)(=O)CC1 (configuration not stated) | 0% |
| CC(Sc1nnc(COc2ccc3ccccc3c2)n1C)C(=O)O (configuration not stated) | -11% |
| Cc1cc(C(=O)CN2C(=O)C3CC=CCC3C2=O)c(C)n1-c1ccccc1 (configuration not stated) | -13% |

The results go on.
Rango release inh,miR-21 reporter,GLA inh pH 4.5,Rango-impB inh,Compound
17%,3%,-9,?,COc1ccccc1-c1c(C)[nH]n2c(=O)c(Cc3ccccc3)c(C)nc12
8%,4%,/,0.1%,C[C@]12C(=O)N(c3ccccc3)C(=O)N1[C@@H]1c3ccccc3OC[C@@H]1[C@H]2c1ccccc1
14%,/,/,0.0%,O=C1OCCC1=Cc1ccccc1
5%,-1%,/,-3.1%,COc1ccc(CNC(=O)COC(=O)c2cccs2)cc1
-15%,-3%,-11,5.7%,O=C(NC1CCN(Cc2ccccc2)CC1)c1ccc(Oc2cc(Cl)cc(Cl)c2)o1
-1%,-2%,7,4.3%,CCOc1ccc(NS(=O)(=O)N(C)C)cc1
-1%,/,/,3.0%,O=C(Nc1cccc(S(=O)(=O)N2CCCCCC2)c1)c1ccc(Cl)nc1
3%,1%,/,-2.7%,O=C(CNC(=O)Cc1cccc2ccccc12)NCc1ccccc1F
-1%,6%,/,-0.5%,COC(=O)N1C(=O)[C@@](c2ccc(OC)cc2)(C(C)C)N1C(=O)OC
2%,5%,/,4.7%,CCC(C)(C)NC(=O)C(c1ccc(OC)cc1)N(Cc1ccccc1)C(=O)CCC(=O)Nc1cc(C)on1 (configuration not stated)
4%,/,-7,-1.2%,COc1ccccc1C1CC(=O)Oc2cc(C)c(Cl)cc21 (configuration not stated)
-12%,-5%,5,1.2%,COc1ccc(NC(=O)Cn2nnc(C(=O)NCc3cccc(OC)c3)c2N)cc1
-1%,/,/,0.0%,Cc1c(O)nc(SC2CC(=O)N(c3cc(Cl)cc(Cl)c3)C2=O)[nH]c1=O (configuration not stated)
-19%,/,/,-3.7%,Cc1ccc(S(=O)(=O)NCCC(=O)NCCOc2ccccc2)cc1
14%,-10%,10,-5.0%,CCCCC(CCC(=O)NNC(=O)Cc1ccccc1)C(=O)O (configuration not stated)
0%,-2%,2,0.9%,CC1CC(C)CN(C(=O)c2ccc(C#N)cc2)C1 (configuration not stated)
15%,-2%,/,-4.7%,O=C(NCc1nnc(SCC(=O)N2CCOCC2)o1)c1c(F)cccc1F
-10%,-6%,1,1.5%,COCCNC(=O)CCc1nc(-c2ccccc2)no1
1%,-8%,0,-3.0%,O=C(NCc1cccs1)C1CCCCC1
53%,1%,-5,-0.2%,O=C(Cc1ccccc1)NN1C(=O)/C(=C/c2ccc(C(=O)O)cc2)SC1=S
-7%,0%,6,0.0%,COC(=O)C(C(=O)NCC1CCCO1)C1CCCC1 (configuration not stated)
-1%,/,/,-2.2%,COc1cccc(NC(=O)CN(C)C(=O)CC2CCCCC2)c1
-2%,-3%,3,-1.3%,Cc1cc(C)cc(NC(=O)C(NCCN2CCOCC2)c2ccccc2)c1 (configuration not stated)
-5%,13%,/,-1.7%,COc1ccccc1C(=O)Nc1ccnn1C1CCN(C/C=C/c2ccc(F)cc2)CC1
-13%,-17%,4,?,Cc1c(C(=O)Nc2ccncc2)sc2nc(-c3ccc(F)cc3)cn12
-18%,-8%,-5,1.5%,COc1ccc2c(c1)nc(SCC(=O)c1ccc(Br)s1)n2C
16%,1%,-10,2.2%,CCCN(Cc1cc2ccc(C)cc2[nH]c1=O)S(=O)(=O)c1ccccc1
7%,0%,/,-0.2%,CC(NC(=O)Cn1cc(Br)c([N+](=O)[O-])n1)c1ccccc1 (configuration not stated)
?,-23%,2,?,c1ccc(-c2cn3nc(-c4ccccc4)c(-c4ccccc4)nc3n2)cc1
0%,-21%,/,0.1%,O=C(CC(=O)Nc1cccc(F)c1)Nc1cccc(F)c1
0%,0%,-1,0.8%,Cc1c2c(nc3nc4ccccc4n13)CC(C)(C)CC2=O
4%,/,/,-3.1%,COc1ccc(C#Cc2c(-c3ccsc3)oc3ccc(N4CCOCC4)cc23)cc1
-1%,/,/,-0.5%,COc1ccc(NC(=O)CSc2nnc(-c3ccc(F)cc3)o2)cn1
-18%,-12%,2,0.2%,Cc1ccc(C(=O)NC(=S)Nc2c(C)ccc3nsnc23)cc1
8%,-10%,/,-0.9%,COc1ccc(/C=C2\CCC(C3CCCC3)C2=O)c(OC)c1 (configuration not stated)
22%,0%,-8,3.4%,CC(=O)NCCNc1ccc([N+](=O)[O-])cn1
-1%,-5%,/,-3.5%,Cc1noc(C)c1CSc1ccccc1C(=O)O
1%,-8%,/,-0.6%,CSc1nsc(NC(=O)OCc2ccc(Cl)cc2)n1
2%,-6%,/,-2.0%,COc1cc(C(C(=O)NC2CCCC2)N(C(=O)c2snc(C(N)=O)c2N)C2CCCC2)cc(OC)c1OC (configuration not stated)
2%,-6%,/,4.7%,O=C(Nc1ccc(NS(=O)(=O)c2ccccc2)cc1)c1ccc(Cl)cc1
-8%,1%&-6%,/,7.5%,COc1ccc(CNC(=O)CCCn2nc(C)c3c(C)n(-c4ccccc4)nc3c2=O)cc1
-10%,-1%,/,-0.7%,O=c1cc(-c2ccccc2)oc2cc(OCc3ccccc3)cc(O)c12

Only part of the results is shown (hit frequency here may not be typical).
